Screens as filed in PubChem.
Tg IFNy HTS – T. gondii growth inhibition under IFN-gamma | Toxoplasma gondii growth in IFN-gamma-treated host cells; stronger effect = lower value; reference of the scale not given here | activity change, negative = inhibition, %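 (about 20 µM by stock and volumes)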 | hit rate 3.8% among 69,000 | AID 1259416;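 active = below -70%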;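 note: host cells are HeLa cells infected with Toxoplasma gondii; parasite growth read as luciferase light; one replicate is shown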
Numbers without * were called inactive; & = joins results of further samples.

SMILES | Tg IFNy HTS
CC(=O)C(C(=O)c1ccc(F)cc1)C1c2ccccc2Oc2ccccc21 (stereo unspecified) | 8
CC(C)n1cc(-c2cc(C(=O)N3CCC(C)(C)C3)c3cc(F)ccc3n2)cn1 | 10
Clc1ccc(Cn2ncc3c(NCc4cccnc4)ncnc32)cc1 | -81*
O=C(O)C1CC(N2CCCC2)CCN1C(=O)Cc1cccc(F)c1 (stereo unspecified) | 0
CCc1ccc(NC(=O)NCC(c2cccnc2)c2c[nH]c3ccccc23)cc1 (stereo unspecified) | 52
CC(C)NC(=O)N1[C@H](CNC(=O)CN(C)C)[C@H](c2ccccc2)[C@@H]1CO | -11
COc1ccc(S(=O)(=O)N2C[C@@H](O)COC[C@H]3O[C@H](CC(=O)N[C@@H]4CCN(Cc5ccccc5)C4)CC[C@@H]32)cc1 | -29
O=C(Nc1nc(-c2ccccc2)cs1)C1CCCN1C(=O)OCc1ccccc1 (stereo unspecified) | 107
CS(=O)(=O)N1CC[C@H]2OCC[C@]2(C(=O)N2CCOCC2)C1 | 4
CCc1nc(OCC(=O)Nc2cccc(Br)c2)c2ccccc2n1 | -37
Cc1cc(C(=O)NC(C)Cc2c(C)nn(C)c2C)nc(N2CCOCC2)n1 (stereo unspecified) | -2
CN(C)C(=O)CC1CC2(CCN(C(=O)N3CCCC3)CC2)Oc2ccccc21 (stereo unspecified) | -13
O=C(Nc1ccccc1Cl)c1c(O)c2cccnc2n(-c2ccc(F)cc2)c1=O | 147
COc1ccccc1OCC(=O)NCCc1csc(-c2ccc(Cl)cc2)n1 | 65
COc1ccc(CCn2c(-c3ccco3)nc3ccccc3c2=O)cc1OC | -1
Cn1cc(C2COC3(CCCN(C(=O)c4ccccc4)C3)C2)cn1 (stereo unspecified) | 106
Cc1ccc(CN2CCn3c(Cn4cccn4)cnc3C2C)s1 (stereo unspecified) | -2
COc1cccc(NC(=O)N2CCC3(CC2)CC(=O)c2ccccc2O3)c1 | -6
CO[C@@H]1CCN(S(=O)(=O)c2cccc(C)c2)[C@H]1Cc1cnn(C)c1 | 3
CCCc1nc(C(=O)NCc2ccc3c(c2)n(C)c(=O)n3C)cs1 | 13

The list goes on.
SMILES | Tg IFNy HTS
Cc1ccc(-c2cc(-c3ccccc3)nc(-n3nc(C)cc3C)n2)cc1 | -104*
COc1cc(CNCCc2ccccc2F)ccc1OCC(=O)N1CCCCC1 | -14
COc1cc2c(cc1OC)-c1c(oc3cc(O)cc(O)c3c1=O)CO2 | 11
C=CCOCC12CCCOC1CCN(C(=O)N1CCCC1)C2 (stereo unspecified) | -3
O=C(O)c1cc(-c2ccccc2)c(C(F)(F)F)s1 | 19
CN1C[C@]23CN(C(=O)C4CCC4)C[C@@H](C[C@H]2S1(=O)=O)O3 | 5
Cc1cccc(NC(=O)C(=O)NCCc2sc(-c3cccc(C)c3)nc2C)c1 | -16
Cc1cccc(-c2ccc(C(=O)N3CCCCC3CCn3cccn3)cn2)c1 (stereo unspecified) | 9
Cc1cn2c(=O)c(C(=O)Nc3ccc(OCCN4CCCCC4)cc3)cnc2s1 | 3
COc1ccccc1C(=O)N1CCC2(CC1)Nc1cc(F)ccc1-n1cccc12 | 64
COCC(=O)Nc1ccc2c(c1)C(=O)N(C)[C@@H]1CC[C@@H](CC(=O)N3CCc4ccccc4C3)O[C@@H]1CO2 | -17
N#C[C@@H]1N[C@@H](CO)[C@H]1c1ccc(C#Cc2ccccc2F)cc1 | -10
COc1ccc(OC)c(NC(=O)CC(=O)NCc2ccc3c(c2)OCO3)c1 | -41
O=C1c2ccccc2C(=O)N1CCS(=O)(=O)N1CCC2(CCNCC2)C1 | 6
COc1ccc(CN2CCc3nc(SCc4nc(-c5ccc(C)cc5)oc4C)[nH]c(=O)c3C2)cc1 | -11
COc1ccc(CCNC2=NCCS2)cc1OC | -29
CC(=O)Nc1cccc(-c2cncc(C(=O)N3CCCCC3)n2)c1 | -36
COc1ccc(N2CCN(C(=O)Cn3ncc4c(N5CCCC5)ncnc43)CC2)cc1 | 68
C/C=C/c1ccc([C@H]2[C@@H](CO)N(CC3CCCC3)[C@H]2CNS(C)(=O)=O)cc1 | -25
O=C1Nc2cc(Cl)ccc2Oc2ccccc21 | 7

(more compounds)
SMILES | Tg IFNy HTS
Cc1ccc(-c2csc(Nc3ccc(S(N)(=O)=O)cc3)n2)cc1C | 6
O=C(c1cccnc1)N1CCOC2CC(COc3ccccn3)CC21 (stereo unspecified) | 16
O=C(O)c1cc(Br)cc(S(=O)(=O)NC2CCCCC2)c1 | -20
Cn1ccc2cc(CCC(=O)NCc3ccncc3)ccc21 | 53
C=C1C2(C(=O)Nc3ccc(SC(F)F)cc3)CCC(C2)C1(C)C (stereo unspecified) | 43
COc1ccc(C2OC(=O)Cc3cc(OC)c(OC)cc32)cc1 (stereo unspecified) | 18&6
O=C(NC1CCCC1)c1c(O)c2ccccc2[nH]c1=O | 169
CC(=O)Nc1ccc(-c2csc(C)n2)cc1 | -20
CC(CNC(=O)c1cccnc1)NC(=O)c1cccnc1 (stereo unspecified) | 5
COC(=O)c1ccccc1S(=O)(=O)N1CC=C[C@H]1C(=O)NCc1ccc(OC)cc1 | 21
COc1ccc2[nH]c(CNC(C)Cn3nc(C)cc3C)cc2c1 (stereo unspecified) | 4
C=CCN1CC[C@H]2[C@@H]1CCN2S(=O)(=O)c1cccs1 | -40
CO[C@H]1CCN(C(=O)c2ccn(C)n2)C[C@@H]1Cc1cccc(C)c1 | -3
CCN(Cc1noc(C2CCC2)n1)C(=O)c1cnc2ccnn2c1C | -7
Cc1c(N=C2C(=O)Nc3ccccc32)c(=O)n(-c2ccccc2)n1C | 21
Cn1c(=O)n(C)c2cc(CNc3nccc(N4CCCC(O)C4)n3)ccc21 (stereo unspecified) | -6
CC(=O)c1ccc(N/N=C2/CCCNC2=O)cc1 | 74
COc1cc(N2Cc3cncn3CC(COCC(C)C)C2)ncn1 (stereo unspecified) | 21
C=CCNc1ccccc1C(=O)N1Cc2ccccc2CC1C(N)=O (stereo unspecified) | -3
COCCN1CCN(Cc2c(C)noc2C)Cc2ccc(C)nc21 | -10

(more compounds)
SMILES | Tg IFNy HTS
C[C@H](NC(=O)C[C@@H]1CC[C@H]2[C@@H](COC[C@@H](O)CN2Cc2ccc(C(F)(F)F)cc2)O1)c1ccccc1 | -6
COc1ccccc1C(=O)Nc1ccc(-c2nc(Cn3nc(C)c(C)c3C)c(C)o2)cc1 | -69
COc1cccc(C(=O)N2CCc3c([nH]c4ccccc34)C2c2ccc(Cl)cc2)c1 (stereo unspecified) | -99*
C=CCO[C@H]1CN(c2ccc(C)nn2)[C@H]2CCCO[C@@H]12 | 0
CCN(CC)C(=O)c1ccc(O)c(OC)c1 | -17&14
COc1ccc(-c2[nH]ncc2CN(CCN(C)C)Cc2cccnc2)cc1 | -26
O=C(c1cccs1)N1CCC2(CCC2NS(=O)(=O)c2ccccc2)CC1 (stereo unspecified) | 0
COc1cc(Nc2nc(SCc3ccccc3Cl)nc3ccccc23)cc(OC)c1OC | 6
CCOc1ccccc1CNC(=O)Cn1ncc2c(N3CCCCCC3)ncnc21 | -64
Cc1ccccc1N1CCCN(Cc2nc[nH]c2C)CC1 | -3
COCCN1C(=O)CCc2cc(NS(=O)(=O)Cc3cc(F)cc(F)c3)ccc21 | -1
CC(C)CC#Cc1ccc([C@H]2[C@@H](CO)N3C(=O)CN(C(=O)Nc4cc(F)ccc4F)C[C@@H]23)cc1 | 4
Cc1nc(CCNC(=O)C2CCN(C(=O)c3cccc(Cl)c3)CC2)cs1 | -3
O=S(=O)(NC1CCOC2(CCN(Cc3ccccc3F)CC2)C1)C1CC1 (stereo unspecified) | 102
O=C(c1ccncc1)N1CCN(S(=O)(=O)c2ccc3ccccc3c2)CC1 | -22
COc1ccccc1-c1ccc2c(c1)[C@H]1[C@H](CCN1Cc1ccccc1F)[C@@H](CO)N2 | -56
COCCC(=O)c1ccn(-c2ccc3ccc(-c4cnn(C)c4)cn23)n1 | -12
O=C1NCCN2CCN(C(=O)Cn3cc(C(F)(F)F)ccc3=O)CC12 (stereo unspecified) | 23
CCOc1ccc(OCC)c(S(=O)(=O)Oc2cccc3ccc(C)nc23)c1 | -93*
CS(=O)(=O)N1CCc2c(COCCN3CCCC3)cncc2C1 | -12

Continued.
Structure	Tg IFNy HTS
CS(=O)(=O)Nc1ccc2c(c1)OCCO2	-1
O=C1CCc2cc(S(=O)(=O)N3CCc4ccccc4C3)cc3c2N1CCC3	4
O=C(c1ccc(-c2ccsc2)nc1)N1CCCC(c2ccccc2)CC1 (stereo unspecified)	-10
CN(C)c1nc(N2CCCC2)nc2c1CCN(C(=O)c1ccco1)CC2	6
C=CCn1c(=O)c(-c2nc(-c3ccc(OCC)cc3)no2)c(O)c2ccccc21	-16
CC1(C(=O)N2CCC3(C2)c2ccccc2S(=O)(=O)N3Cc2ccc(F)cc2)CC1 (stereo unspecified)	5
Cc1nnsc1CN(C)C(=O)CCc1c(C)nn(C)c1C	17
C[C@@H]1CN([C@H](C)CO)C(=O)CCCn2cc(nn2)CO[C@H]1CN(C)C(=O)Nc1ccc2c(c1)OCO2	434
CCn1ccc2cc(S(=O)(=O)N3CCCC(C(=O)NCc4cccnc4)C3)ccc21 (stereo unspecified)	-58
Cc1nc(-c2ccc(F)cc2)sc1CCNC(=O)C(=O)Nc1ccc(C(N)=O)cc1	52

Given as labelled records: 3 of the compounds above
> Cc1nc(-c2ccc(F)cc2)sc1CCNC(=O)C(=O)Nc1ccc(C(N)=O)cc1
  Tg IFNy HTS = 52
> CC1(C(=O)N2CCC3(C2)c2ccccc2S(=O)(=O)N3Cc2ccc(F)cc2)CC1 (stereo unspecified)
  Tg IFNy HTS = 5
> CCOc1ccc(OCC)c(S(=O)(=O)Oc2cccc3ccc(C)nc23)c1
  Tg IFNy HTS = -93*

(more compounds)
Structure	Tg IFNy HTS
O=C(Cn1c(=O)cc(C(=O)N2CCCC2)c2ccccc21)Nc1ccc(Br)cc1	6
CN(Cc1cccc2cnccc12)S(=O)(=O)NCc1ccccc1	-53
Cn1ncc2c(NCc3cnn4ccccc34)nc(-c3cccnc3)nc21	-34
CN(c1ccccc1)c1ccc2ccc(C(=O)Cc3ccccn3)cn12	-2
CNc1nc(C2CCNC2)nc2c1CCN(C)C2 (stereo unspecified)	-23
Cc1nonc1CC(=O)Nc1cccc(N2CCCC2)c1	-15
CC(c1ccc(-c2nnnn2-c2ccccc2)cc1)N1CCOCC1 (stereo unspecified)	14
N#Cc1ccc(C(=O)N2CCC3(CC2)Nc2cc(F)ccc2-n2cccc23)cc1	41
Cc1sc2ncnc(N3CCC(C(=O)NCC(C(C)C)N(C)C)CC3)c2c1C (stereo unspecified)	-28
CC(C)N(CC1COc2ccccc2O1)C(=O)c1cc(C2CC2)[nH]n1 (stereo unspecified)	-49

Continued:
Structure	Tg IFNy HTS
Cc1ccc(C2(O)CCN(C(=O)c3cc4sccc4[nH]3)CC2)nc1	-1
Cc1cccc2nc(CSc3ccccc3N)cn12	309
FC(F)(F)c1cccc(Nc2nnc(-c3cccnc3)s2)c1	-9
O=C1NC[C@@H]2CN(C(=O)c3cnccn3)C[C@@H]12	57
COCCN(Cc1nccs1)Cc1cc2ccccc2[nH]c1=O	-5
COc1cccc(NC(=O)C[C@H]2CC[C@H]3[C@H](COc4ccc(NS(=O)(=O)c5cccc(F)c5)cc4C(=O)N3C)O2)c1	-23
Nc1ccc(-c2cnc(-c3ccc(N)cc3)nc2)cc1	343
O=C(CSc1ncccc1-c1nc2ccccc2[nH]1)c1ccc(Cl)cc1	0
COc1ccccc1-c1cnc2c(c1)C(=O)N([C@@H](C)CO)C[C@@H](C)[C@H](CN(C)C(=O)CC1CC1)O2	40
Cc1nc(CN2CCN(C(=O)CC(=O)Nc3ccc(F)c(Cl)c3)CC2)cs1	-8

Further entries
Structure	Tg IFNy HTS
Cc1ccc(S(=O)(=O)Nc2cccc3c2O[C@H](CN(C)C(=O)Nc2ccc(C(F)(F)F)cc2)[C@H](C)CN([C@H](C)CO)C3=O)cc1	4
CCOCc1cnc2n1CCN(Cc1ccsc1)C2C (stereo unspecified)	-41
Cc1ccc(C)c(-c2nc(CSc3nc4c(=O)[nH]c(C)nc4n3C)c(C)o2)c1	-4
O=C(O)[C@H]1[C@H](CO)[C@H]2Cn3c(ccc(C4=CCCCC4)c3=O)[C@H]2N1Cc1ccc2c(c1)OCO2	-3
O=C(c1ccc(Oc2ccccc2)o1)N1Cc2cnn(CCO)c2C1	40
Cc1nc(CN2CCCC(CCc3ccc(F)cc3)C2)no1 (stereo unspecified)	-11
c1ccc(-c2nc(CN3CCCC3c3ccccn3)no2)cc1 (stereo unspecified)	3
O=C(c1ccccn1)N1CCOCC2(CCN(Cc3ccco3)C2)C1 (stereo unspecified)	5
CS(=O)(=O)N1[C@H](C#N)[C@@H](c2ccc(C#Cc3cccc(F)c3)cc2)[C@H]1CO	6
CN(Cc1ccsc1)C(=O)Cc1nc(-c2ccccc2)n[nH]1	-13

Next records.
Structure	Tg IFNy HTS
NCC1Cc2cc(-c3nc4ccccc4s3)cc(Cl)c2O1 (stereo unspecified)	46
CCN1c2ccccc2C(=O)NC12CCN(C(=O)Nc1ccc3c(c1)OCCO3)CC2	133
N#Cc1sc(C(N)=O)c(-c2ccccc2)c1-c1ccccc1	-2
Cc1oc(-c2ccc(C(=O)N3CCN(c4ccccn4)CC3)cc2)nc1CN1CCc2ccccc21	-8

For convenience, some entries already given:
Structure	Tg IFNy HTS
CN(Cc1ccsc1)C(=O)Cc1nc(-c2ccccc2)n[nH]1	-13
NCC1Cc2cc(-c3nc4ccccc4s3)cc(Cl)c2O1 (stereo unspecified)	46
CCN1c2ccccc2C(=O)NC12CCN(C(=O)Nc1ccc3c(c1)OCCO3)CC2	133
N#Cc1sc(C(N)=O)c(-c2ccccc2)c1-c1ccccc1	-2
Cc1oc(-c2ccc(C(=O)N3CCN(c4ccccn4)CC3)cc2)nc1CN1CCc2ccccc21	-8

An excerpt. The share of hits here may be higher or lower than overall.
